Compound activity: PubChem, National Center for Advancing Translational Sciences (NCATS)
gsp ag – activates gsp, the McCune-Albright syndrome mutation; gsp mutant cells, cAMP HTRF, 30 min; control for the full effect not named in the record; Potency, µM (titrated, usually from 76.9 µM), without a hit: top-dose activation (cAMP increase), actives largely listed as activators; 340,000 compounds, 0.13% hits; active = well fitted activation curve with a large enough effect; inconclusive = small, poorly fitted or top-dose-only effect, or another doubt; inactive = no such curve, though single readings can be large or run the other way; cell line not stated here;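 also: phosphodiesterase inhibitor Ro 20-1724 added with compounds to block cAMP breakdown; potency is read from the fitted curve at half-maximal effect; nearly all actives have a fitted effect of over 60% in size; about a fifth of the inactives were tested at one dose only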
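Cells in DMEM/10% FBS with G418 were pretreated with compounds in DMSO plus […] (300 uM stock) for 30 min at 37C. cAMP was measured by HTRF (cAMP-d2 plus anti-cAMP antibody-K) after 30 min at room temperature.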
ClpP mod – qHTS Assay for Activators of ClpP | ATP-dependent Clp protease proteolytic subunit (Bacillus subtilis (strain 168)), P80244 | purified B. subtilis ClpP, FRET peptide cleavage, 20 min | 340,000 compounds, 1.9% hits | Potency, µM (series often up to 57.5 µM), for inactives: top-dose activity change, negative = active; active = well fitted falling curve with a large enough effect; inconclusive = small, poorly fitted or top-dose-only effect; inactive = no such curve, though single readings can be large or run the other way; also: potency is read from the fitted curve at half-maximal effect; the source files actives as falling curves though it sought activators and does not explain the sign; nearly all actives have a fitted effect of over 65% in size; many hits overshoot -100%
Target sequence (P80244 whole entry, looked up): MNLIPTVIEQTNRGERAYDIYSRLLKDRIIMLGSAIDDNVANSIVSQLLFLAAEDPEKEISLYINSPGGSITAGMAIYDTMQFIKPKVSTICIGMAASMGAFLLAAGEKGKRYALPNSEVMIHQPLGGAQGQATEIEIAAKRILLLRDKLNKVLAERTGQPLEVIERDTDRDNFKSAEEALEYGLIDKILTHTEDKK
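ClpP 10 microg/mL final, pH 8 Tris/KCl buffer with BSA, glycerol, Tween-20; compound pinned in; FRET-FV substrate; RT 20 min; Ex320/Em430; ΔFRET vs ADEP 5.8 microM, DMSO, no enzyme.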
PINK1 modulator – modulators of PINK1 expression; AID 624263; 410,000 compounds, 0.2% hits; PINK1 immunofluorescence, high-content cytometry, 24 h; Potency, µM (highest dose often 76.6 µM), for inactives: at the top dose activation (PINK1 increase), hits mostly activators; active = well fitted activation curve with a large enough effect; inconclusive = small, poorly fitted or top-dose-only effect; inactive = flat fitted curve, though single readings scatter; cell line not stated here;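 also: potency is read from the fitted curve at half-maximal effect; % of control where 0% means no effect; nearly all actives have a fitted effect of over 65% in size; a mitochondrial uncoupler was the plate control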
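Decision-based qHTS: stable cells, 24 h exposure to five compound concentrations, CCCP as control. Fixed cells stained for PINK1 plus nuclear, mitochondrial and cell markers, cytometer read.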
gsp antag – gsp mutant antagonism; gsp-mutant cells, cAMP HTRF, 30 min; control for the full effect not named in the record; Potency, µM (series often up to 76.9 µM), for the others: at the highest dose activity change, negative = inhibition, actives largely listed as inhibitors; 340,000 compounds, 0.4% hits; active = falling curve of any shape with a large fitted effect; inconclusive = falling curve, mostly with a smaller effect; inactive = flat or rising curve; cell line not stated here;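 also: intracellular cAMP measured with PDE inhibitor Ro 20-1724 present during compound exposure; potency is read from the fitted curve at half-maximal effect; % is scaled to controls: 0 for no effect and ±100 for the full control effect; nearly all actives have a fitted effect of over 65% in size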
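G418-selected cells were plated in DMEM/10% FBS for 16-24 h at 37C, then treated with compounds plus the PDE inhibitor […] (300 uM solution added) for 30 min at 37C. Intracellular cAMP was measured by HTRF after 30 min lysis at room temperature.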
Menin-MLL FL inh – inhibitors of human menin-MLL interaction, wild-type MLL peptide | AID 1766 | FP activity change, % at 61.4 µM | Fluorescence polarization, fluorescein-MLL peptide displacement from menin | 290,000 tested, under 10 active; inconclusive = falling polarisation curve, or a change in total fluorescence; inactive = total fluorescence flat and polarisation flat or rising; no compound was filed as active; the % refers to the polarisation; negative = inhibition;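 also: % of control where 0% means no effect; inhibitors lower the polarisation; unlabelled MLL peptide was the positive control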
Sfp PPTase inh – inhibitors of Bacillus subtilis Sfp phosphopantetheinyl transferase; AID 1490; Q9F4F7; 310,000 compounds, 3.5% hits; Biochemical Sfp PPTase activity, qHTS; Potency, µM, inactives show max response, negative = inhibition, hits mostly inhibitors; active = well fitted inhibition curve with a large enough effect; inconclusive = small, poorly fitted or top-dose-only effect, or another doubt; inactive = no such curve, though single readings can be large or run the other way;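 also: the enzyme is Sfp with the accession as filed and its product quenches rhodamine fluorescence; potency is read from the fitted curve at half-maximal effect; 0% = enzyme reaction without inhibitor and -100% = no enzyme wells; top concentration of the series not given in the record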
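Compounds were incubated with enzyme (final 15 nM) for 15 min at room temperature before substrate addition started the reaction. Fluorescence at 525 nm excitation, 598 nm emission was recorded immediately and after 30 minutes.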
D2 ag – agonists of human D2 dopamine receptor (beta-arrestin). P14416. DiscoveRx PathHunter D2 beta-arrestin, luminescence, 90 min; 100% = 57 uM dopamine signal. activation, % (no concentration beside the values). 360,000 compounds, 0.084% hits; in the data active = activation above about 40%; inconclusive = about 15% to 40%; inactive = below about 15%; also: compound concentration not given in the record; the text of the record calls up to 30% inactive
Target sequence (P14416 whole entry, looked up): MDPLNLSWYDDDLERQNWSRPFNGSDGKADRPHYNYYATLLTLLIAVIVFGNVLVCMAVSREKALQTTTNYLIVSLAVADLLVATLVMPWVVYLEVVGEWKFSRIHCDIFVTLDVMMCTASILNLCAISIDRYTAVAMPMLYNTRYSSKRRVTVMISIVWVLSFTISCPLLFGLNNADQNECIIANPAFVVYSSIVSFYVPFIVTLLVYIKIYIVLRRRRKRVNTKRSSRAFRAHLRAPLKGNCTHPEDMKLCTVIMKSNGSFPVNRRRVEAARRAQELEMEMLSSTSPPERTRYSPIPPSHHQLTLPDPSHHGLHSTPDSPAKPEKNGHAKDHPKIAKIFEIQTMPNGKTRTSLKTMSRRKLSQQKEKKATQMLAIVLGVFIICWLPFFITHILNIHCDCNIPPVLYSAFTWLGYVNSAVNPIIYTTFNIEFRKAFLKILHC
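DiscoveRx PathHunter D2 beta-arrestin cells (2,100/well) attached overnight, then compound-stimulated 90 min at 37 C in HBSS/10 mM HEPES/0.1% Tween-20 buffer; beta-galactosidase complementation read by luminescence after 1 h at ambient temperature. Dopamine 57 uM final (EC100) as control.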
The depositor's hits bear a star; ? = inconclusive; / = not tested or not shown; & = joins results of further samples; [ ] = remark or other dose.

SMILES	gsp ag	ClpP mod	PINK1 modulator	gsp antag	Menin-MLL FL inh	Sfp PPTase inh	D2 ag
Cc1ccc(S(=O)(=O)N2CCOCC2)cc1C(=O)N1CCCC1	-1%	/	2.2%	13%	45[activator]	29%	-3.9
CN1/C(=C\C=[N+](C)c2ccccc2)C(C)(C)c2ccccc21	5%	0.1%	14%[38.3 µM]	-11%	0.2	?	2.6
O=C(N/N=C/c1ccccn1)c1ccncc1	-54%[inhibitor]	-3.2%	0.6%	0%	0.0	20µM*	-2.8
C=CCn1c(SCC(=O)Nc2ccc(OC)cc2)nc2ccccc2c1=O	-8%[15.4 µM]	0.4%	1.6%	-1%	2.8	21%	1.2
Cc1cc(O)c(C=Nc2ccc(N3CCOCC3)cc2)c(C)c1Cl	-30%	/	-0.1%	2%	?	-13%	5.9
O=c1c(O[C@@H]2O[C@H](CO)[C@@H](O)[C@H](O)[C@H]2O)c(-c2ccc(O)cc2)oc2cc(O)cc(O)c12	/	-1.7%	-0.1%	2%	2.1	5%	-5.4
Cc1ccnc(NC(=O)c2ccc3c(c2)OCO3)c1	7%[15.4 µM]	-1.1%	-2.3%	0%	0.7	9%	-3.6
COc1ccc(CCNc2c(C)c(C)nc3ncnn23)cc1	?	-8.0%	5.0%[38.3 µM]	?	1.1	19%	0.5
NNC(=O)CSCc1nc(-c2ccc(Cl)cc2)cs1	-3%	/	0.9%	-17%	1.8	12%	1.1
CCOC(=O)c1ccc(NC(=O)COc2ccc(S(=O)(=O)NC(C)(C)C)cc2)cc1	-9%	0.8%	-0.8%	-9%[15.4 µM]	-0.1	10%	-0.1
CC(C)(C)OC(=O)NCc1ccc(NC(=O)c2nc[nH]c2C(=O)NCCCCCCNC(=O)c2[nH]cnc2C(=O)Nc2ccc(CNC(=O)OC(C)(C)C)cc2)cc1	-8%	-19%	-1.6%	-6%	/	/	-3.6
COc1ccc(CCNc2nc(C)c(C(C)=O)s2)cc1OC	-9%	/	0.4%	-3%	2.0	16µM*	5.3
Cc1c(C(=O)N2CCCC2)c(S(=O)(=O)N2CCCCC2)c(C)n1C	30%	-2.0%	-1.1%	16%	-0.5	8%	3.5
Cc1ccc([C@@H]2C[C@H]3[C@@H](CN2S(=O)(=O)c2ccc(C)cc2)C(=O)C[C@@H](c2ccc(Cl)cc2)N3S(=O)(=O)c2ccccc2C)cc1	21%	-0.2%	0.9%	/	/	/	-8.8
Nc1c(Cl)cc(-c2csc(N3CCCC3c3nc4cc(Cl)c(N5CCCCC5)cc4n3CCCO)n2)cc1Cl (centres undefined)	/	0.4%	3.5%	-20%	/	/	-3.9
O=C(NCc1ccco1)C(c1ccccc1)N(CC1CCCO1)C(=O)Cn1nnc2ccccc21 (centres undefined)	13%	-2.7%	1.0%	6%	-1.6	-17%	-5.3
CC(C)(C)OC(=O)N1CCC(c2c(C(=O)NCC3CCN(C4CCCC4)C3)cnn2-c2ccccc2Cl)CC1 (centres undefined)	-42%	-1.1%	3.2%	-10%	-0.4	-9%	0.4
CCn1cc(C(=O)N2CCCC(C(=O)c3cccc(C(F)(F)F)c3)C2)cn1 (centres undefined)	-17%	-1.2%	0.3%	/	/	/	-1.9
COc1cccc(NS(=O)(=O)c2ccc3[nH]cc(C(=O)N(C)Cc4ccco4)c(=O)c3c2)c1	5%	-26%&-16%	2.6%	6%	-0.7	8%	-1.2
CCn1c(C)csc1=NC(=O)c1ccccc1	-3%	2.2%	-4.0%	2%	2.6	1%	-1.4
COc1cc(-c2nc(CN3CCN(c4ncccn4)CC3)c(C)o2)ccc1F	-4%[15.4 µM]	/	1.1%	/	1.7	19%	?
CC1CCN(C(=O)CCN2C(=O)/C(=C/c3cccs3)SC2=S)CC1	19%	/	0.6%	-9%	1.2	7%	-1.7
Cn1ncc2c(NNC(=O)c3ccc(O)cc3)ncnc21	?	-0.3%	-1.0%	11%	-5.4	13%	-1.0
COc1ccc(Br)c2oc(S)cc(=O)c12	-6%	-1.4%	4.8%	?	1.7	?	-6.3
COc1ccc(NC(=O)CSc2nnc(-c3cccnc3)n2C)cc1	?	-1.2%	-0.1%	0%	-0.2	8%	1.4
CN1C[C@@H]2[C@@H]3C(=O)N(C)C(=O)[C@@H]3[C@](Cc3ccccc3)(C1=O)N2C(=O)c1ccc(Cl)cc1	-26%	-1.3%	-1.0%	1%	/	/	2.1
Fc1ccc(Nc2ncnc3sc4c(c23)CCC4)cc1F	4%	1.9%	2.4%	17%	-1.0	-20%	-1.2
Cc1cc(C)cc(OCC(=O)NC(C)c2ccccc2)c1 (centres undefined)	-10%[15.4 µM]	-0.1%	-3.0%	2%	6.4	-4%	-3.2
CCOC(=O)c1ccccc1NC(=O)COC(=O)c1cc([N+](=O)[O-])ccc1N1CCOCC1	-1%[15.4 µM]	-3.7%	-0.9%	-15%	/	/	-1.1
Cc1ccc(S(=O)(=O)N2CCCCC2)cc1NC(=O)COC(=O)c1ccc2c(c1)OCO2	18%	4.5%	6.8%	13%	-0.1	17%	-0.8
O=C(Nc1cccnc1)C1Cc2c(-c3ccc4c(c3)OCO4)ccnc2O1 (centres undefined)	/	5.2%	2.3%	/	/	/	2.3
COc1cc(OC)cc(C(=O)Nc2nnc(SCC(=O)NCC3CCCO3)s2)c1 (centres undefined)	23%[15.4 µM]	-1.8%	-0.3%	-7%	/	-5%	-1.6
CN(NC1CC(=O)N(c2ccccc2)C1=O)c1ccccc1 (centres undefined)	-38%[inhibitor]	?	1.6%	9%	4.2	45µM*	-4.4
COc1ccc(/C=C(\NC(=O)c2ccc(OC)cc2)C(=O)Nc2ccc(C(=O)O)cc2)cc1	-3%	/	3.1%	-6%	-0.9	0%	-5.6
C/C=C/c1ccc(OCCCCOc2ccccc2C(C)=O)c(OC)c1	12%	-1.5%	0.5%	-2%	/	0%	1.7
CN1CCN(C(=O)C2=C[C@@H](c3coc4ccccc4c3=O)C[C@@H](OCc3ccc(CO)cc3)O2)CC1	/	-0.4%	-1.2%	-3%	-9.1	11%	-2.0
CCn1c(/C=C/Nc2ccccc2)[n+](CC)c2cc(Cl)c(Cl)cc21	21%	-1.9%	-3.2%	-4%	-8.8	?	-2.6
COc1ccc(S(=O)(=O)N/N=c2\oc3c(OC)cccc3cc2S(=O)(=O)c2ccc(C)cc2)cc1OC	-31%	2.9%	-0.1%	-10%	-2.3	9%	-1.8
COC(=O)/C=C1\SC(=NC(=O)c2ccc(OC)cc2)NC1=O	-1%	/	-0.1%	3%	-6.7	-14%	3.2
O=C(Cc1ccc(Br)cc1)N1CCN(c2ccccc2)CC1	5%	0.6%	-2.3%	0%	6.8	8%	-1.7
CC(CC(=O)N1CCc2ccccc21)c1ccccc1 (centres undefined)	-33%[inhibitor]	0.9%	3.9%	3%	1.5	10%	-5.1
O=C(c1cccs1)N(Cc1cc2ccccc2[nH]c1=O)CC1CCCO1 (centres undefined)	32%	/	3.5%	-19%	-15	7%	4.1
O=C1S/C(=C/c2ccc(N3CCOCC3)o2)C(=O)N1Cc1c(F)cccc1Cl	-5%	0.6%	?	5%	?	4.5µM*	-0.7
O=C(Nc1cc(S(=O)(=O)Nc2ccccc2Cl)ccc1O)c1sc2cc(Cl)ccc2c1Cl	26%	/	3.0%	-7%	2.8	14%	1.8
CCOc1ccccc1C1C2CCCCC2(O)CCN1C(=O)c1cccs1 (centres undefined)	-2%	-0.5%	-2.1%	5%	-1.7	-6%	1.3
CCC(=O)Nc1cccc2cccnc12	15%	-2.4%	-2.0%	4%	-4.1	6%	-1.4
COc1ccc(CCNC(=O)c2ccc(CSc3ccccc3)o2)cc1	13%[15.4 µM]	/	-0.3%	-1%	-1.3	-2%	0.7
COc1ccc(C(=O)c2cn(-c3cccc(Br)c3)nc2C(C)=O)cc1	10%[15.4 µM]	/	24%	-6%	/	/	-0.6
CCC(C)(C)C1CCc2nc3ccccc3c(C(=O)OC(C)C(=O)Nc3c(C)n(C)n(-c4ccccc4)c3=O)c2C1 (centres undefined)	?	1.5%	-0.3%	4%	6.6	7%	1.4
COc1ccc(N2CCN(CC(O)COc3ccc(C)cc3C)CC2)cc1 (centres undefined)	2%	-2.4%	3.6%&2.3%	-3%	-1.1	-4%	0.3
CC(=O)N1C(Nc2ccc(Cl)cc2)CCN1c1ccccc1 (centres undefined)	-52%[inhibitor]	-0.2%	1.2%	16%	-0.5	5%	-1.7
CCc1ccc(N2CC(C(=O)Nc3cccnc3)CC2=O)cc1 (centres undefined)	0%	-2.2%	-2.1%	-8%	-2.2	17%	0.1
CNC(=O)c1ccc(NC(=O)CCc2c(C)noc2C)cc1	-36%	-0.7%	0.5%	4%	/	/	1.3
COc1ccc(NC(=O)CSc2ncnc3c2cnn3CCc2ccccc2)cc1	8%	0.7%	6.4%	-4%	-0.3	20%	-1.6
O=S(=O)(NCCc1cn2ccccc2n1)c1ccc2c(c1)OCCO2	?	?	-0.1%	5%	0.8	6%	-6.2
Cc1ccc(/C=C2\SC(=S)N(c3cccnc3)C2=O)o1	5%	-1.0%	2.6%	-6%	?	50µM*	-2.3
Cc1sc(NC(=O)c2ccccc2)c(C(=O)NC(C)C)c1C	15%	?	/	31%	1.5	14%	2.2
O=C(Nc1cccc(C(F)(F)F)c1)N1CCC(c2nc(-c3ccc(F)cc3)no2)CC1	-45%[inhibitor]	-3.3%	16%[38.3 µM]	?	1.8	25%	1.6
